# Compound activity: PubChem, National Center for Advancing Translational Sciences (NCATS)
# SARS PLpro yeast = SARS-CoV PLP inhibition in yeast. AID 485353. 330,000 compounds, 0.19% hits. S. cerevisiae expressing SARS-CoV PLpro, growth rescue; control for the full effect not named in the record. Potency, µM (doses to about 32.9 µM), inactives show top-dose activity, positive = growth rescue; active means well fitted rising curve with a large enough effect; inconclusive means small, poorly fitted or top-dose-only effect; inactive means no such curve, though single readings can be large or run the other way; also: 0% is about no effect; nearly all actives have a fitted effect of over 55% in size; growth read by luminescence after 48 h
# NS1 function inh = inhibitors of influenza NS1 protein function | Potency, µM (highest dose often 46.1 µM), without a hit: at the top dose activity, positive = more growth | 270,000 compounds, 0.4% hits | AID 2326 | S. cerevisiae slowed by influenza A NS1, growth recovery by OD600; active means well fitted rising curve with a large enough effect; inconclusive means small, poorly fitted or top-dose-only effect; inactive means no such curve, though single readings can be large or run the other way; also: nearly all actives have a fitted effect of over 50% in size
#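 Compounds were scored for reversing the slow growth caused by influenza A NS1 in S. cerevisiae, measured by optical density at 600 nm. Assay medium contained 2% galactose at pH 6.0; NS1-free yeast of the same strain were the positive control.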
# RE007 growth inh = less growth of the S. pombe RE007 Vpr strain; S. pombe RE007 Vpr strain, BacTiter-Glo ATP luminescence, 24 h; control for the full effect not named in the record; Potency, µM (highest dose often 92.2 µM), without a hit: at the top dose activity change, negative = less growth; 360,000 compounds, 0.21% hits; active = well fitted falling curve with a large enough effect; inconclusive = small, poorly fitted or top-dose-only effect; inactive = no such curve, though single readings can be large or run the other way;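 also: % is scaled to controls: 0 for no effect and ±100 for the full control effect; nearly all actives have a fitted effect of over 50% in size; the assay follows cell death caused by Vpr and the record does not say whether a fall means rescue or toxicity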
#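 Fission yeast RE007 carrying one integrated HIV-1 vpr copy, seeded at OD 0.01 in PMG+AL medium with 23 nL pinned compound. Grown 24 h at 30 degrees; viability read by BacTiter-Glo luminescence after 5 min.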
# Lassa entry inh = blocks Lassa virus binding to or entry into cells; Lassa virus pseudotype entry inhibition, cell reporter; control for the full effect not named in the record; 300,000 compounds, 1.2% hits; Potency, µM (titrated, usually from 37.9 µM), for inactives: top-dose activity change, negative = inhibition, usual class: inhibitors; active means well fitted inhibition curve with a large enough effect; inconclusive means small, poorly fitted or top-dose-only effect, or effect the other way; inactive means flat fitted curve, though single readings scatter; tested in HEK293 cells; also: % is scaled to controls: 0 for no effect and ±100 for the full control effect; nearly all actives have a fitted effect of over 50% in size; luciferase read-out
# Cruzain inh Det = cruzain (T. cruzi) inhibition with detergent; P25779; Potency, µM, for inactives: max response, negative = inhibition, actives largely listed as inhibitors; purified cruzain, Z-FR-AMC fluorescence, 0.01% Triton; 200,000 compounds, 0.43% hits;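 also: plate controls were neutral wells for no effect and buffer without enzyme for full effect; nearly all actives have a fitted effect of over 40% in size; top concentration of the series not given in the record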
# Target sequence (P25779 123-467 limits assumed): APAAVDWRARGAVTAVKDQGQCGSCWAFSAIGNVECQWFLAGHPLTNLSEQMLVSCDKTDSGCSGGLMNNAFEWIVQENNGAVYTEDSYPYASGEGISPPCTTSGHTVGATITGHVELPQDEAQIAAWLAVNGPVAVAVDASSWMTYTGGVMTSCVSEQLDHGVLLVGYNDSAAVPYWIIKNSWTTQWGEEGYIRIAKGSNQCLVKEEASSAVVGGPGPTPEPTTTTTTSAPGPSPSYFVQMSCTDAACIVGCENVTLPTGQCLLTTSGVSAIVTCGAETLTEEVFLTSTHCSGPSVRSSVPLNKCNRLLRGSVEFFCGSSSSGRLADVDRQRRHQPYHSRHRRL
#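 Purified cruzain (1.5 nM final) was preincubated with compounds for 15 min at room temperature in 100 mM sodium acetate pH 5.5, 5 mM DTT, 0.01% Triton X-100. Reaction started with 2 uM Z-FR-AMC; AMC fluorescence change over 60 s gave activity.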
# Cruzain inh noDet = blocks cruzain activity in detergent-free assay; 200,000 compounds, 2.3% hits; P25779; Potency, µM, inactives show max response, negative = inhibition, hits mostly inhibitors; purified cruzain, Z-FR-AMC fluorescence, no detergent;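 also: plate controls were enzyme without inhibitor for no effect and buffer without enzyme for full effect; nearly all actives have a fitted effect of over 40% in size; top concentration of the series not given in the record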
#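 Detergent-free condition (0.00005% Triton X-100) in acetate buffer pH 5.5 with DTT. 1.5 nM enzyme and compound were pre-mixed 15 min, then 2 uM Z-FR-AMC substrate added; reaction progress from fluorescence change between first and third reads (60 s).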
# Marburg entry inh = blocks Marburg virus binding to or entry into cells. Marburg virus pseudotyped entry inhibition, cell reporter; control for the full effect not named in the record; about a third of the inactives were read at about 46 µM. Potency, µM (titrated, usually from 37.8 µM), for inactives: top-dose activity change, negative = inhibition, usual class: inhibitors. 300,000 compounds, 1.8% hits. AID 540276; active = well fitted inhibition curve with a large enough effect; inconclusive = small, poorly fitted or top-dose-only effect, or effect the other way; inactive = flat fitted curve, though single readings scatter; tested in HEK293 cells; about a fifth of its hits are not listed in these tables; also: % is scaled to controls: 0 for no effect and ±100 for the full control effect; luciferase read-out
# StopGo reporter = FMDV 2A StopGo reporter, luciferase signal. human cells with a luciferase reporter of 2A StopGo recoding; control for the full effect not named in the record. Potency, µM (titrated, usually from 57.9 µM), for inactives: top-dose signal change, negative = less light. 410,000 compounds, 1.2% hits; active = well fitted falling curve with a large enough effect; inconclusive = small, poorly fitted or top-dose-only effect; inactive = no such curve, though single readings can be large or run the other way; tested in HEK293T cells; also: % is scaled to controls: 0 for no effect and ±100 for the full control effect; nearly all actives have a fitted effect of over 45% in size; luciferase light after 4 h
# The depositor's hits bear a star; ? = inconclusive; . = not tested or not shown; & = joins results of further samples; [ ] = another dose, or the depositor's remark. Unless noted, calls follow the shape of the dose curve; as a rule, active = well fitted curve in the direction sought with a large enough effect; inconclusive = small, poorly fitted or top-dose-only effect, or another doubt; inactive = no such curve, though single readings can be large; an effect the other way counts as inactive or inconclusive. Potency is read from the fitted curve at half-maximal effect.
SMILES,SARS PLpro yeast,NS1 function inh,RE007 growth inh,Lassa entry inh,Cruzain inh Det,Cruzain inh noDet,Marburg entry inh,StopGo reporter
COc1ccc(-c2cc(C(F)(F)F)n3nc(C(=O)NCc4ccco4)c(Cl)c3n2)cc1,1%,?,-5%,?,-3.4%,13%,6%,5%
COc1ccc(-c2noc(CSc3nnc(Cc4ccccc4)n3-c3cccc(C)c3)n2)cc1OC,0%,-41%,8%,?,-4.0%,?,?,.
O=[N+]([O-])c1ccc2cn(-c3ccccc3)nc2c1,-16%,1%,?,-1%,-8.1%,-14%,?,6%
C=CCn1c(SCC(=O)NCc2ccco2)nnc1-c1ccc2ccccc2n1,-2%,-30%,-12%,-21%,-9.3%,?,?,?
COc1ccc(Cn2nnnc2C(c2ccncc2)N2CCOCC2)cc1 (stereo not given),1%,-10%,4%,-18%,3.1%,-5%,7%,-6%
O=c1c2c(nc3cc(-c4ccc(Br)cc4)[nH]n13)CCCC2,2%,3%,2%,.,.,.,.,12%
CCN(CC(=O)NCc1cccs1)C(=O)/C=C/c1ccc(Cl)c(Cl)c1,-13%,.,-6%,?,.,.,29%,-7%
Cc1cc(C(=O)CSc2n[nH]c(N)n2)c(C)n1-c1ccccc1,-6%,2%,-5%,-34%,3.6%,13%,-5%,25%
CNC(=S)Nn1cnc2ccccc21,3%,-1%,14%,1%[46.1 µM],.,.,12%[46.1 µM],14%
O=C(/C=C/c1ccccc1)CC(O)(c1ccccc1)C(F)(F)F (stereo not given),-33%,-205%,-16%,?,-6.2%,-1%,?,.
CSc1ccccc1NC(=O)Nc1ccc(Cl)cc1,-19%,-130%,-2%,?,-8.4%,6%,?,0%
O=C(NC1CC1)c1ccc(CS(=O)c2ccccc2)o1 (stereo not given),2%,4%,13%,.,.,.,.,?
CCOc1ccc(NC(=S)/C(=C(\[O-])c2ccc(C)c([N+](=O)[O-])c2)[n+]2ccccc2)cc1,-8%,2%,-10%,-2%,-5.9%,25µM*,15%[46.1 µM],15%
COc1ccccc1-n1c(CNc2ccc(F)cc2)nnc1SCC(=O)Nc1cc(C)on1,-13%,7%,4%,?,-2.2%,3%,-2%,-7%
COc1ccc(C2(C(=O)Nc3nncs3)CCCC2)cc1,12%,-3%,1%,-2%,2.1%,-2%,?,-24%
N#Cc1ccc(NC(=O)Cn2c3[n+](c4ccc(C(F)(F)F)cc42)CCCCC3)cc1,-1%,1%,-1%,?,.,.,4%[46.1 µM],-10%
CCN(CC)S(=O)(=O)c1ccc(NCC2COc3ccccc3O2)c([N+](=O)[O-])c1 (stereo not given),2%,12%,6%,?,-6.4%,8%,?,0%
COc1ccc(CN(C)C(=O)c2cccc(NS(=O)(=O)c3ccccc3)c2)c(OC)c1,-4%,12%,-2%,?,.,.,-28%[46.1 µM],13%
CC(/C=N/n1c(COc2ccccc2)n[nH]c1=S)=C\c1ccccc1,-15%,-62%,-5%[3.69 µM],?,-1.8%,-17%,-1%,-22%
C=C(C)Cn1c(NCCOC)nc2c1c(=O)[nH]c(=O)n2C,1%,5%,19%,1%,1.9%,-5%,4%,-13%
COc1cc2c(cc1OC)CN(C(=O)CCNS(=O)(=O)c1ccc(Br)cc1)CC2,5%,.,-4%,12%,.,.,-3%,-10%
COc1cccc(C(=O)Nc2nnc(SCC(=O)NC3CC3)s2)c1,-1%,1%,-11%,-22%,.,.,-26%,41%[activator]
CN(C)c1cc(NC(=O)CN2CCOCC2)c2ccccc2n1,0%,7%,-11%,.,.,.,.,-6%
Cc1nc2ccccc2c(=O)n1Cc1ccc([N+](=O)[O-])cc1,0%,-8%,-5%,.,.,.,.,-3%
CCn1c(=O)c2c3c(sc2n2c(SCc4ccc(F)cc4)nnc12)CCCC3,.,.,3%,12%,.,.,23%[46.1 µM],-21%
O=C(O)Cn1c(=O)c(-c2ccccc2)nc2ccccc21,2%,18%,14%,8%[46.1 µM],.,.,26%[46.1 µM],15%
CS(=O)(=O)N(CC(=O)N1CCN(c2ccccc2)CC1)C1CCCCC1,-6%,3%,27%,-9%,-2.6%,-7%,-27%[46.1 µM],-3%
CC(C)c1ccc(NC(=O)CSC2=Nc3ccccc3C3=NC(CCC(=O)NC4CCCCC4)C(=O)N23)cc1 (stereo not given),.,.,.,?,2.0%,3%,.,?
COC(=O)[C@H](C(C)C)n1c(C)c(C(C)=O)c(C(C)=O)c1C,0%,-6%,27%,6%,-4.5%,-4%,-15%,-18%
CCCCn1c(SCC(=O)NCc2ccco2)nc2ccccc2c1=O,-3%,0%,13%,9%,-2.3%,-5%,-15%,-1%
COc1cccc(CN2CCC(n3nccc3NC(=O)C3CC3)CC2)c1,0%,3%,10%,.,.,.,.,5%
CC(=Nc1ccc(C)c(C)c1)C1=C(O)CSC1=O,-5%,-25%,?,17%,-5.7%,-7%,14%[46.1 µM],-5%
COc1cccc(CNC(=O)CCn2c(=O)c3cccn3c3ccc(F)cc32)c1OC,.,.,.,3%[46.1 µM],-2.2%,2%,.,-2%
N#Cc1cnc(SCCc2ccccc2)nc1N,-9%,-18%,-22%,-39%,-0.6%,-12%,-9%,3%
Cc1ccccc1OCc1nnc(SCC(=O)NCc2ccco2)n1C,1%,-5%,-11%,-1%,.,.,27%[46.1 µM],10%
O=C(NCCc1ccccc1)C(=O)NCC1CCCN1S(=O)(=O)c1cccs1 (stereo not given),-4%,.,-17%,?,.,.,?,-19%
CCOc1ccc(C(=O)Cn2cnc3ccccc3c2=O)cc1,-2%,-6%,-12%,20%[46.1 µM],.,.,?,20%
COc1cccc(NC(=O)c2nnn(CCc3ccccc3)c2N)c1,-2%,-9%,-10%,.,2.8%,4%,.,54%[activator]
O=C(NCCSc1ccccc1)c1ccccc1Cl,-3%,-10%,4%,-26%,-1.7%,8%,?,11%
CCC(C)Nc1nc2c(c(=O)[nH]c(=O)n2C)n1CCOc1ccccc1 (stereo not given),1%,-2%,7%,.,.,.,.,0%
COc1ccc(-c2noc(CN(C)Cc3ccccc3)n2)cc1,2%,-14%,-6%,.,.,.,.,18%
CCCCCCCCC(=O)N/N=C/c1ccccn1,-33%,-162%,?,?,-3.8%,-8%,0%,.
Cc1ccc(/C=N/NC(=O)C(C)Oc2ccccc2[N+](=O)[O-])s1 (stereo not given),-2%,-9%,-6%,-5%,-7.1%,-6%,?,-14%
CC(Sc1nnc(C2CC2)n1C1CC1)C(=O)Nc1ccccc1C#N (stereo not given),-1%,.,3%,?,.,.,-27%,-1%
N=C1C(c2nc3ccccc3s2)=C(O)CN1Cc1ccco1,-2%,-18%,18%,18%,-6.5%,-9%,?,13%
CCOC(=O)N1CCC(NC(=O)C2CCN(c3nc(-c4ccc(OC)cc4)no3)CC2)CC1,-2%,-1%,-9%,-7%,1.6%,7%,-22%&-22%,?
N#Cc1ccc(N2C(=O)[C@@H]3C(C(=O)c4cnccn4)=NN[C@@H]3C2=O)cc1,-3%,-4%,-1%,-3%,.,.,-4%[46.1 µM],?
c1ccn2c(CNc3ncnc4sccc34)nnc2c1,1%,?,5%,2%,-1.0%,-22%,8%,1%
O=C(NC1CCCCC1)c1cc([N+](=O)[O-])ccc1N1CCOCC1,-1%,11%,1%,16%,-0.6%,-5%,?,-26%
C(/C=C/c1ccccc1)=N/N1CCN(c2ccccc2)CC1,1%,3%,0%,-17%,2.1%,?,?,51%[activator]
O=C(COc1ccccc1C(=O)Nc1ccccc1)c1ccc(Br)cc1,1%,1%,-12%,-24%,.,.,-25%[46.1 µM],-11%
O=C(Nc1cc(=O)[nH]c2nc(-c3ccccc3)nn12)c1ccccc1Cl,4%,5%,4%,6%,.,.,9%[46.1 µM],?
Cn1/c(=N/N=C/c2ccccn2)sc2ccccc21,0%,4%,-25%,?,.,.,.,21%
CC(C)(C)NC(=O)C(c1cccs1)N(Cc1ccco1)C(=O)c1csnn1 (stereo not given),3%,0%,0%,19%,.,.,?,-16%
CN1CCN(CCCCOc2ccccc2-c2ccccc2)CC1,0%,3%,2%,-1%[46.1 µM],.,.,?,-4%
Cc1cc2c(cc1S(=O)(=O)CCC(=O)N1CC(C)CC(C)C1)OCC(=O)N2 (stereo not given),0%,5%,-6%,.,.,.,.,-12%
Cc1ccccc1CN1CCC(n2nccc2NC(=O)c2ccc3c(c2)OCO3)CC1,-1%,4%,-3%,.,.,.,.,-13%
COc1ccc(NC(=O)COC(=O)C2C3CC4OC(=O)C2C4C3)cc1 (stereo not given),4%,6%,21%,27%[46.1 µM],.,.,6%[46.1 µM],12%
CCOc1ccc(NC(=O)CN2C(=O)C(C)SC(C)C2=O)cc1 (stereo not given),-4%,.,4%,8%,.,.,1%[46.1 µM],6%
O=C(NCCc1ccc(Cl)cc1)c1ccc(S(=O)(=O)N2CCCC2)cc1,5%,.,-13%,-1%,.,.,6%,0%
# Going on with the list.
SMILES,SARS PLpro yeast,NS1 function inh,RE007 growth inh,Lassa entry inh,Cruzain inh Det,Cruzain inh noDet,Marburg entry inh,StopGo reporter
Cc1ccc(N=C2NC(=O)CC(C(=O)Nc3cc(C(F)(F)F)ccc3Cl)S2)cc1 (stereo not given),.,.,.,-11%[46.1 µM],-0.1%,?,-21%[46.1 µM],-28%
COc1cc(/C=C/C(=O)OCc2cn3cc(Cl)ccc3n2)ccc1O,3%,-2%,-1%,.,.,.,.,-52%
Cc1ccc(Br)cc1S(=O)(=O)Nc1cccnc1,-5%,8%,3%,.,.,.,.,77%[activator]
COc1ccc(S(=O)(=O)NCC2CCCN(C(=O)c3occc3C)C2)cc1 (stereo not given),-2%,2%,-5%,-8%[46.1 µM],.,.,4%[46.1 µM],-2%
